CtBP-E1A blk: blocks the CtBP interaction with E1A. AID 651724. AlphaScreen GST-E1A/His-CtBP binding, 1536-well; stronger effect = lower value; control for the full effect not named in the record. actives 0.49% (n = 340,000). activity change, % (no concentration beside the values); in the data active means activity change below about -65%; inconclusive means about -30% to -65%; inactive means above about -30%; also: % is scaled to controls: 0 for no effect and ±100 for the full control effect; compound concentration not given in the record
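GST-E1A and His-tagged CtBP (125 nM each as 5X stock) were preincubated with pin-transferred compound for 2 h at 37 °C in the dark, then glutathione donor and nickel acceptor beads were added for 1 h before AlphaScreen reading.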
TRPML1 agonist: human mucolipin-1 channel agonism | TRPML1-expressing cells, Ca2+ dye fluorescence, FDSS; host cell line not named in the record; reference of the full effect not given here | activation, % (no concentration beside the values) | actives 0.12% (n = 410,000) | AID 624414; in the data active = activation above about 50%; inconclusive = about 30% to 50%; inactive = below about 30%; also: 0% is about no effect; the text of the record puts the active cut at 80%
Target sequence (Q9GZU1 whole entry, looked up): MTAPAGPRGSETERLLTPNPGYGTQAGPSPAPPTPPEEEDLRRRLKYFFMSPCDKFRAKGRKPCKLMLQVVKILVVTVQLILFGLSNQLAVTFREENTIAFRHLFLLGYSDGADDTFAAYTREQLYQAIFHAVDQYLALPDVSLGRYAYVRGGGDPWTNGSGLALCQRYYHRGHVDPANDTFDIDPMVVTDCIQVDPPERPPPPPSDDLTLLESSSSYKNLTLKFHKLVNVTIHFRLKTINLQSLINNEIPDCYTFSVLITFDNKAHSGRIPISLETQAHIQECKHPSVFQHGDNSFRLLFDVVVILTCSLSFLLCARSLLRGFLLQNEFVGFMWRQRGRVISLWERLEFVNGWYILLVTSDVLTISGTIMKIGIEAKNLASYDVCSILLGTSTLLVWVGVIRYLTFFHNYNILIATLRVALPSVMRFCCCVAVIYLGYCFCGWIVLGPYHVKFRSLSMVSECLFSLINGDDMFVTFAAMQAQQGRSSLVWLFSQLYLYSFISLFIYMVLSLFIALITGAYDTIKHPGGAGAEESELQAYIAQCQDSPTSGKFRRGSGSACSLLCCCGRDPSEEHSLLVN
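Kinetic FDSS Ca2+ read in Tet-induced TRPML1-DL cells (ABD Ca8 dye plus quencher, 45-90 min RT loading): baseline, then compound, then 110 s agonist window; EC80 agonist 54-4 at 4uM final added afterwards for a 110 s antagonist window.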
PINK1 modulator: modulators of PINK1 expression | PINK1 immunofluorescence, high-content cytometry, 24 h | Potency, µM (doses to about 76.6 µM), inactives show at the highest dose activation (PINK1 increase), actives largely listed as activators | actives 0.2% (n = 410,000) | AID 624263; active = well fitted activation curve with a large enough effect; inconclusive = small, poorly fitted or top-dose-only effect; inactive = flat fitted curve, though single readings scatter; cell line not stated here;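 also: potency is read from the fitted curve at half-maximal effect; % of control where 0% means no effect; nearly all actives have a fitted effect of over 65% in size; a mitochondrial uncoupler was the plate control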
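Decision-based qHTS: stable cells, 24 h exposure to five compound concentrations, CCCP as control. Fixed cells stained for PINK1 plus nuclear, mitochondrial and cell markers, cytometer read.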
Six1-Eya2 blk: Six1/Eya2 interaction inhibition. Q15475+O00167. AlphaScreen GST-Six1/His-Eya2 binding, biochemical; stronger effect = lower value; control for the full effect not named in the record. activity change, % (no concentration beside the values). actives 0.56% (n = 360,000). AID 651725; in the data active = activity change below about -65%; inconclusive = about -30% to -65%; inactive = above about -30%; also: % is scaled to controls: 0 for no effect and ±100 for the full control effect; compound concentration not given in the record
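Six1/Eya2 binding was read as AlphaScreen signal after compounds were pinned into GST-Six1 plus His-tagged Eya2 (5X stock 250/500 nM) in pH 8.0 Tris/NaCl/TCEP buffer, beads added, then incubated 1 h, 37 C, dark.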
D2 agonist: agonists of human D2 dopamine receptor (beta-arrestin) | actives 0.084% (n = 360,000) | P14416 | DiscoveRx PathHunter D2 beta-arrestin, luminescence, 90 min; 100% = 57 uM dopamine signal | activation, % (no concentration beside the values); in the data active = activation above about 40%; inconclusive = about 15% to 40%; inactive = below about 15%; also: compound concentration not given in the record; the text of the record calls up to 30% inactive
Target sequence (P14416 whole entry, looked up): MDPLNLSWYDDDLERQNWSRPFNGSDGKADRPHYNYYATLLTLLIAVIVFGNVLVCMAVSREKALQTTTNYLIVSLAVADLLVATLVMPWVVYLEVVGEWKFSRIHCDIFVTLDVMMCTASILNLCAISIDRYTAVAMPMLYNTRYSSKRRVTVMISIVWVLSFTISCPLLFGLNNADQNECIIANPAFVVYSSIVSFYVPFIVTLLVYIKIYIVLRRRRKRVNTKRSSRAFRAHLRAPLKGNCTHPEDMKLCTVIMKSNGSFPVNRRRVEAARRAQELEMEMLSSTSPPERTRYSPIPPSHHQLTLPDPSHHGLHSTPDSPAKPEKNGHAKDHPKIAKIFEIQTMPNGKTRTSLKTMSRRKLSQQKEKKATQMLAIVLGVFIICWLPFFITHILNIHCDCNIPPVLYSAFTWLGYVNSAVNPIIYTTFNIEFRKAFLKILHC
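DiscoveRx PathHunter D2 beta-arrestin cells (2,100/well) attached overnight, then compound-stimulated 90 min at 37 C in HBSS/10 mM HEPES/0.1% Tween-20 buffer; beta-galactosidase complementation read by luminescence after 1 h at ambient temperature. Dopamine 57 uM final (EC100) as control.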
D2 potentiator: potentiates the human D2 dopamine receptor allosterically; potentiation, % (concentration not given with the values); DiscoveRx D2 beta-arrestin cells, luminescence, 90 min; 100% = 57 uM dopamine signal; actives 0.23% (n = 360,000); AID 624464; P14416; active = potentiation of 50% or more; inconclusive = 30% to 50%; inactive = 30% or less;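 also: compound concentration not given in the record; tested on top of an EC20 dose of dopamine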
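PathHunter D2 cells, attached overnight at 37 deg C, received compound in DMSO plus dopamine at EC20 (50 nM final) for 90 min at 37 deg C. Beta-arrestin recruitment was read as luminescence after 1 h with detection reagent at ambient temperature.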
The depositor's hits bear a star; ? = inconclusive; . = no result given; & = joins results of further samples; [ ] = remark or other dose. Rows were taken by chance (roughly 1.3% active in at least one column).

SMILES | CtBP-E1A blk | TRPML1 agonist | PINK1 modulator | Six1-Eya2 blk | D2 agonist | D2 potentiator
COc1ccc(S(=O)(=O)Nc2ccc(-n3cnnn3)cc2)cc1Br | -2.2 | 0.1 | -0.5% | -10.5 | 0.0 | -9.0
CCN1CCN(C(c2cccs2)C(C)NC(=O)CC(C)C)CC1 (configuration not stated) | 9.3 | -0.4 | ? | 0.5 | -0.8 | -1.5
COc1cc(-c2noc(C3CCCN(C(=O)c4c(F)cccc4F)C3)n2)cc(OC)c1OC (configuration not stated) | -4.0 | 1.1 | 0.7% | 0.0 | 1.1 | -2.1
COc1cccc(CNC(=O)Cn2ccc([N+](=O)[O-])n2)c1 | . | . | 1.1% | 2.8 | 2.5 | -13.5
COc1ccc(CN(C)C(=S)Nc2ccc(Cl)cc2Cl)cc1 | -10.4 | 2.1 | 0.7% | 0.8 | -4.7 | -12.5
CCCc1cc(=O)oc2c(C)c(OC3CCCCC3=O)ccc12 (configuration not stated) | 5.5 | 0.5 | -2.1% | -3.4 | -2.6 | 0.6
CC(CCc1ccccc1)NC(=O)COC(=O)c1ccc([N+](=O)[O-])cc1 (configuration not stated) | -0.6 | 0.7 | 2.3% | 1.9 | 0.5 | 4.6
COc1c(N2C[C@@H]3CCCN[C@@H]3C2)c(F)cc2c(=O)c(C(=O)O)cn(C3CC3)c12 | -13.5 | 1.0 | 1.9% | 3.6 | -2.2 | -2.4
COc1ccccc1-n1nnnc1SCC(=O)NCC1CCCO1 (configuration not stated) | -1.2 | -0.6 | 1.3% | 3.6 | -5.5 | -24.9
Cc1ccc(-n2nnc3c(=O)n(CC(=O)N4CCC(C)CC4)cnc32)cc1 | -2.3 | 0.0 | 5.3%[38.3 µM] | 0.6 | 1.0 | -2.0
Cc1cccc(NCN2C(=O)c3ccccc3C2=O)c1 | 3.7 | 0.9 | -0.6%[38.3 µM] | -0.7 | -3.8 | -19.8
O=c1cnn(Cc2ccc(Cl)c(Cl)c2)c2ccccc12 | -4.0 | 1.0 | 1.4% | 3.5 | -3.6 | 2.2
Cc1csc(NC(=O)CSc2nnc(Cc3cccn3C)n2CCc2ccccc2)n1 | -11.9 | 0.6 | 1.1% | -18.9 | -4.6 | 4.8
CC1CCc2nn(CC(=O)NCCCN3CCCC3=O)cc2C1 (configuration not stated) | 5.6 | 0.1 | 1.3% | 2.4 | 7.2 | -2.8
COc1cccc(-c2csc(N3CCN(C(=S)Nc4ccccc4C)CC3)n2)c1 | . | 0.7 | 0.3% | -19.1 | -5.2 | -3.8
O=[N+]([O-])c1ccc(C2Nc3cccc4cccc(c34)N2)cc1 | 8.8 | -0.3 | 11.7% | -17.5 | ? | 80.1*
O=C(CCN1C(=O)c2cccc3cccc(c23)C1=O)NC1CCS(=O)(=O)C1 (configuration not stated) | 4.5 | 0.5 | -1.7% | 0.0 | -6.8 | 0.2
O=C(Nc1cc(S(=O)(=O)N2CCCCC2)ccc1O)c1ccccc1NS(=O)(=O)c1ccc(F)cc1 | -7.4&-16.5 | -0.6&-0.5 | ? | ? | -1.3&-3.0 | -4.2&-13.4
O=C(COC(=O)C1CC2C=CC1C2)Nc1c(Br)cc([N+](=O)[O-])cc1Br (configuration not stated) | -1.2 | -0.6 | 9.4% | -4.6 | ? | ?
COc1ccc(-c2cnn(-c3ccccc3)c2N)cc1OC | -10.2 | 2.7 | -1.6% | -5.1 | -3.4 | -17.6
CCS(=O)(=O)Nc1cccc(C2=NN(S(=O)(=O)CC)C(c3cccs3)C2)c1 (configuration not stated) | 32.7 | 0.9 | 7.4% | 18.0 | 2.1 | -5.8
Cc1ccc(OCC(=O)Nc2cccc3ccccc23)c([N+](=O)[O-])n1 | . | -0.3 | -1.1% | 0.8 | 0.0 | -12.8
Cc1cccc(N/N=C2/COC(C)(C)CC2=O)c1 | . | -1.3 | -0.9% | -16.5 | -3.1 | -0.4
Cc1ccc(C(=O)Nc2ccc(S(=O)(=O)N3CCOCC3)cc2)cc1 | 9.8 | 1.5 | -1.9% | 3.2 | 5.2 | -21.1

Compounds shown so far containing a Cl atom (2):
SMILES | CtBP-E1A blk | TRPML1 agonist | PINK1 modulator | Six1-Eya2 blk | D2 agonist | D2 potentiator
COc1ccc(CN(C)C(=S)Nc2ccc(Cl)cc2Cl)cc1 | -10.4 | 2.1 | 0.7% | 0.8 | -4.7 | -12.5
O=c1cnn(Cc2ccc(Cl)c(Cl)c2)c2ccccc12 | -4.0 | 1.0 | 1.4% | 3.5 | -3.6 | 2.2

Continuation:
SMILES | CtBP-E1A blk | TRPML1 agonist | PINK1 modulator | Six1-Eya2 blk | D2 agonist | D2 potentiator
Cc1ccc2c(c1)/C(=N/OS(=O)(=O)c1ccccc1)CCS2 | -2.0 | -0.8 | -1.5% | -1.2 | 2.3 | -2.5
COc1ccc(Nc2oc(COc3cccc(C)c3)nc2C#N)cc1 | -6.8 | 0.2 | 1.1% | -11.7 | 3.0 | 16.1
COc1ccc(NC2=C(c3ccc(OC)cc3)C(=O)c3ccccc32)cc1 | ? | 1.5 | 8.7% | -27.1 | -2.3 | -9.3
CCN(C(=O)CSc1nnc2c3ccccc3n(CC)c2n1)C1CCS(=O)(=O)C1 (configuration not stated) | -8.7 | 2.4 | 1.1% | -7.9 | -2.9 | -13.3
Cc1cc(C)c(C(=O)N2CCCC(N3CCN(c4ccc(F)cc4)CC3)C2)o1 (configuration not stated) | 1.2 | -0.1 | 0.8% | 0.2 | -5.8 | -16.5
CN(CCOC(=O)/C=C/c1ccccc1)C(C)(C)C | 13.5 | 0.6 | -1.4% | 2.9 | -0.8 | -13.4
Cc1ccccc1OCC(=O)OCC(=O)Nc1ccc(S(N)(=O)=O)cc1 | 1.2 | -0.4 | 3.3% | -2.4 | 0.8 | -2.8
O=C(CC(=O)c1ccccc1)Nc1ccc([N+](=O)[O-])cc1 | -0.8 | -0.1 | ? | 4.5 | -1.8 | -14.7
CCCc1c(C(=O)N/N=C/c2ccccc2C(F)(F)F)nnn1-c1nonc1N | 2.1 | -0.2 | 5.7% | 1.1 | 3.7 | 4.9
CC(C)c1nc(Cl)c(C#N)c2c1CSC(C)(C)C2 | -7.5 | ? | 5.6% | 12.0 | -3.8 | -4.4
CN(CCCNC(=O)C1CCC(=O)N1Cc1ccc(F)cc1)c1ccccc1 (configuration not stated) | 2.6 | -1.1 | 0.5% | -4.5 | -2.1 | -3.1
O=C(O)c1ccc(CSc2nnc(-c3ccncc3)n2CC2CCCO2)cc1 (configuration not stated) | 16.1 | -0.4 | -1.6% | 5.5 | -0.6 | 4.7
CC(CCc1ccccc1)NC(=O)c1cncc(Br)c1 (configuration not stated) | 3.7 | -1.5 | -2.0% | -5.4 | -2.5 | -16.2
COc1cc2nc(N(CCCN(C)C)C(=O)c3ccc(S(=O)(=O)N4CCc5ccccc54)cc3)sc2cc1OC | ? | 3.7 | -1.7% | -13.6 | -1.5 | -10.9
COc1cc(NC(=S)N2CCc3ccccc3C2)cc(OC)c1 | 1.6 | -0.5 | 0.2% | -1.7 | 3.2 | -3.1
O=C(COC(=O)/C=C/c1ccc(F)cc1)Nc1nnc(-c2ccccc2)o1 | -29.1 | -0.6 | 0.0% | -3.4 | 5.3 | -3.0
O=C(c1cc(-c2ccc(F)cc2)nc2ccccc12)N1CCN(C2CCS(=O)(=O)C2)CC1 (configuration not stated) | . | -0.4 | 2.4% | 0.1 | 0.1 | 7.2
COc1ccccc1/C=C/C(=O)OCC(=O)N1c2ccccc2CC1C (configuration not stated) | ? | 1.6 | 0.0% | -0.5 | 3.7 | -4.7
Cc1csc(-c2cccnc2)n1 | -1.3 | -0.5 | -0.8% | 16.2 | -7.2 | -1.2
Cc1ccnc(N2C(=O)c3cccc4c([N+](=O)[O-])ccc(c34)C2=O)c1 | 2.2 | 3.4 | -3.1%[38.3 µM] | -4.7 | 8.8 | 51.4*
CCn1ccnc1CNC(=O)CC1C(=O)NCCN1Cc1ccc(F)cc1Cl (configuration not stated) | -23.0 | 0.0 | -0.5% | -7.8 | 3.5 | -9.3
CCCSc1cc(NCCOC(C)=O)c([N+](=O)[O-])c2nonc12 | 3.7 | 0.7 | -0.5% | 2.3 | -7.9 | -4.7
Cc1cccn2c(=O)c3cc(C(=O)NC4CCCC4)c(=N)n(Cc4ccc(F)cc4)c3nc12 | 0.8 | 0.4 | 23.7% | -2.0 | -3.5 | -9.0
CCCCC(=O)Nc1nnc(S(=O)(=O)N(CC)c2ccccc2)s1 | 0.2 | -0.6 | 2.1% | 5.6 | 0.1 | -5.2
Cc1ccc(C(=O)Nc2ccc(OCc3ccccc3)cc2)cc1[N+](=O)[O-] | 2.6 | 3.5 | ? | 0.8 | 8.3 | 3.1
O=C(Cc1cccs1)NNC(=O)C12CC3CC(CC(C3)C1)C2 | . | 0.3 | -2.5% | 3.1 | 0.7 | -15.4
CCCc1ccc(S(=O)(=O)N/N=C(/C)c2ccc3c(c2)OCO3)cc1 | -6.2 | 0.9 | 1.2% | 1.5 | -5.6 | 9.0
O=Cc1c(Cl)cccc1Cl | 7.6 | -0.6 | 1.6% | 0.1 | 0.7 | -5.5
CCCn1c(SCC(=O)N2CCCC(C)C2)nnc1-c1cccnc1 (configuration not stated) | -5.2 | 0.8 | -2.5% | -14.5 | 1.9 | -1.8
CN1CCN(C(=O)CCS(=O)(=O)c2cc3c(cc2Cl)NC(=O)CO3)CC1 | -22.6 | 0.8 | -3.3% | 6.8 | -2.4 | -1.4
CCOC(=O)/C=C1\NC(C)(C)Cc2cc(OC)c(OC)cc21 | -1.0 | 1.1 | 1.9% | 0.9 | -4.1 | 0.9
N/C(CC(=O)Nc1ccc(F)c(Cl)c1)=N\OC(=O)c1cccs1 | -6.3 | -0.6 | -1.6% | -11.2 | ? | ?
CCOC(=O)c1cn(C2CC2)c2c(F)c(NCCCN(C)C)c(F)cc2c1=O | 4.3 | 0.5 | 1.1% | 11.4 | -2.5 | -10.2
Cc1onc(-c2ccccc2Cl)c1C(=O)Nc1cc(=O)n(C)c(=O)n1C | -3.3 | 0.3 | 0.2% | 1.4 | 1.1 | -1.7
COc1ccc(Br)cc1-c1nc2c(c(=O)[nH]c(=O)n2Cc2ccccc2)n1C | -2.1 | 1.8 | 6.2% | 6.7 | -1.1 | 1.2
CC1=NN(c2ccc(Cl)cc2)C(=O)C1C(c1ccccc1O)c1c(C)[nH]n(-c2ccc(Cl)cc2)c1=O (configuration not stated) | 15.9 | 2.7 | 10.3% | -18.6 | -1.5 | 3.4
O=C(CN1CCCCCC1)Nc1ccc(Cl)cn1 | 4.2 | 0.0 | 0.7% | -0.3 | -1.0 | -4.1
O=C(CN(CCc1ccccc1)C(=O)CNS(=O)(=O)c1ccccc1)NCC1CCCO1 (configuration not stated) | 1.1 | -0.2 | -2.5% | 12.8 | -2.4 | -16.1
Cc1cc(C2(O)C(=O)Nc3ccccc32)ccc1F (configuration not stated) | 9.0 | 0.1 | 1.8% | 4.7 | 3.2 | -3.6

High-throughput results from PubChem.
